# From PubChem BioAssay
# Rce1 inhib: blocks yeast Ras-converting enzyme; Q03530; calls only; yeast membranes, quenched prenylated peptide cleavage fluorescence; AID 2563; 0.27% of 290,000 active;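 active means fall in fluorescence gain of 50% or more versus controls, with final raw signal at or below 3038400; inconclusive means same 50% fall but final raw signal above 3038400; inactive means fall in fluorescence gain under 50%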;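 further: plate controls were neutral control wells for no effect and wells lacking membranes for full effect; tested at 10 µM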
# Target sequence (Q03530 whole entry, looked up): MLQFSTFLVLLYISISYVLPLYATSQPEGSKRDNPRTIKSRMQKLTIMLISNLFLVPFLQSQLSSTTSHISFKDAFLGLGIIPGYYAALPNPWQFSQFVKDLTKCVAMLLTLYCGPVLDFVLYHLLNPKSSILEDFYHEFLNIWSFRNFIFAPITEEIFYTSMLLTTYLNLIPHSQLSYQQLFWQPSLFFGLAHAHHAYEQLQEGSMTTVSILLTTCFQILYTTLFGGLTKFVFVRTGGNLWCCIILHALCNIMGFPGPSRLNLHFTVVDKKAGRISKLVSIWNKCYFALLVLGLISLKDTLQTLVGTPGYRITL
# eIF4H inh: inhibitors of RNA binding by human eIF4H; Q15056; eIF4H fluorescence polarization binding assay; inhibition, % at 35 µM; 0.94% of 290,000 active;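 active means 50% or more with normal probe brightness, or confirmed in later tests; inconclusive means above 50% with abnormal brightness, or retests that disagree; inactive means below 50% or failed in later tests; about a fifth of its hits are not listed in these tables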;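 further: calls also rest on retests at 20 µM and on dose response follow-up; 0% = protein and probe with vehicle and 100% = probe without protein; strong numbers were not always called active; many hits fall short of the cut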
# MT1-MMP act inh: blocks activation of human MT1-MMP. AID 651647. 0.061% of 360,000 active. GFP/RFP ratio change, % at 20 µM. P50281. HT1080 RFP-PRO-GFP cells, GFP/RFP ratio fluorescence, overnight; percent of plate control window, DMSO zero;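 active means GFP/RFP ratio change of at least 30% with cell ATP level not reduced by more than half and red fluorescence within 50% of control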; further: strong numbers were not always called active
#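 Test system: HT1080 cells expressing an RFP-PRO-GFP fluorescent reporter construct / Compound dosing: single-point 20 µM compound, 1% DMSO / Schedule: cells overnight before dosing, compound overnight, 37 °C, 5% CO2 / Evaluation: GFP/RFP fluorescence ratio / Control set: DMSO and RFP-L50D-GFP cell wells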
# CSC inhib: blocks cancer stem cells; cancer stem cell-like cells viability, luminescence; inhibition, % at 7.5 µM; 1.1% of 300,000 active; AID 2717;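 active means mean at 75% or more and at least half the replicates too; inconclusive means mean and replicates disagree; tested in HMLE shEcad cells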;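 further: 0% = median of negative and 100% = median of positive control wells; the first replicate is given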
# Env fusion inh: blocks HIV Env-driven cell-cell fusion; 1.1% of 360,000 active; HeLa-JRFL Env/CEM21 cell fusion, luciferase; inhibition, % at 12.3 µM;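 active means mean replicate inhibition score of at least 50 and every replicate individually at or above 50; inconclusive means only one of the two criteria met; inactive means mean below 50 and not all replicates reaching 50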;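 further: 0% = plate neutral controls and 100% = maraviroc near 300 nM; one replicate is shown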
# UUG fidelity: yeast start codon fidelity modulation; S. cerevisiae UUG-firefly luciferase reporter, luminescence/redox ratio; activity score, % at 18.7 µM; 0.13% of 350,000 active;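 active means replicate mean at a twofold rise or more, about +100% in these data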;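 further: firefly luciferase made from a UUG start codon reports start codon fidelity; reporter light over untreated wells divided by growth signal over untreated wells; some hits fall short of that in this replicate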
# PABP polyA inh: blocks human PABP binding to poly(A) RNA | P11940 | fluorescence polarization | inhibition, % at 35 µM | 1% of 290,000 active;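 active means 50% or more with normal probe brightness, or confirmed in later tests; inconclusive means above 50% with abnormal brightness, or retests that disagree; inactive means below 50% or failed in later tests; about a fifth of its hits are not listed in these tables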;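 further: calls also rest on retests at 20 µM and on dose response follow-up; controls were probe without protein and protein plus probe with vehicle; some compounds called inactive have numbers as strong as hits; many hits fall short of the cut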
# MT1-MMP act inh RFP: recorded beside MT1-MMP act inh, whose call it bears; RFP signal change, %; measured here: RFP expression control read;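 0 = vehicle wells; hits needed this value within 50% of zero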
# * marks the source's active call; other numbers are inactive results; i = inactive; ? = inconclusive; / = not tested or not shown.
smiles	Env fusion inh	MT1-MMP act inh	MT1-MMP act inh RFP	Rce1 inhib	UUG fidelity	eIF4H inh	PABP polyA inh	CSC inhib
O=C(NC1CCCC1)c1cc(-c2ccc(Cl)cc2)on1	-35	1	-2	i	-6	-1	-1	11
Cc1cc(C)c(C#N)c(SCC(=O)Nc2nonc2N)n1	-29	3	0	/	-1	-10	7	62
O=C(NCc1ccccc1)c1cc(C2COCCN2C(=O)CCc2ccccc2)on1 (stereo unspecified)	10	4	6	/	-2	/	/	/
c1ccc(-n2cnc3cc(NCc4ccncc4)ccc32)cc1	-53	11	0	i	-23	3	-3	2
Cc1ccc(C(=O)Nc2cccnc2Cl)cc1Cl	-22	-2	4	i	-14	4	3	-5
Cc1cc(C)cc(OCC(O)CN2C(=O)NC(C)(C)C2=O)c1 (stereo unspecified)	-14	1	7	i	-8	-1	4	-7
O=C1CC(N2CCN(C/C=C/c3ccccc3)CC2)C(=O)N1CCc1ccccc1 (stereo unspecified)	/	1	-9	i	-23	0	4	1
CC(=O)N1CCN(c2ccc([N+](=O)[O-])cc2)CC1	4	4	1	i	/	-9	-8	-11
CCCNC(=O)CSc1nnc(-c2ccccc2Br)n1-c1cccc(C(F)(F)F)c1	-5	-4	1	i	/	-20	4	-1
COC(=O)C1(C)NC(c2ccc(OC)cc2)C2C(=O)N(c3ccccc3)C(=O)C21 (stereo unspecified)	-11	0	1	i	-11	6	-4	0
Cc1ccc2c(CN3CCN(S(=O)(=O)c4ccc(Cl)cc4)CC3)cc(=O)oc2c1C	33	-2	-16	/	-7	/	/	/
c1ccc(Nc2nc3ccccc3n3cnnc23)cc1	-15	5	4	i	-15	-1	2	5
COc1ccc(S(=O)(=O)N2CCC(C(=O)Oc3cccc(C)c3)CC2)cc1OC	21	2	1	i	-8	-2	-1	0
CCCNC(=O)C1CC(c2ccc(C(F)(F)F)cc2)=NO1 (stereo unspecified)	-11	2	0	i	-12	-8	-4	-1
Cc1cc(NC(=O)CSc2ncnc3ccccc23)no1	?	-2	-5	i	-18	-6	1	-9
CN1CCN(c2ccc(C(CC(N)=O)NC(=O)Cc3cccc4ccccc34)cc2[N+](=O)[O-])CC1 (stereo unspecified)	4	5	3	i	-12	7	19	-23
Cc1ccc(N(C(=O)Cc2cccs2)C(C(=O)NCC2CCCO2)c2ccncc2)cc1 (stereo unspecified)	-7	-3	-2	i	-6	-3	0	4
O=C1c2ccccc2[C@@H]2C[C@@H](O)[C@H](Nc3cccc4ccccc34)CCN12	8	-4	7	/	-14	/	/	/
O=C(NC1CCCCC1)c1cccc(S(=O)(=O)N2CCCCC2)c1	6	1	-4	i	-1	-1	1	/
CCOC(=O)N1CCN(C2CC(=O)N(c3ccccc3)C2=O)CC1 (stereo unspecified)	/	-2	1	i	-1	-8	5	-16
c1csc(CNc2nc(NCC3CCCCC3)c3sccc3n2)c1	24	-7	-21	/	-13	/	/	/
CC1CCCCC1NC(=O)COC(=O)c1ccc2c(c1)NC(=O)CS2 (stereo unspecified)	-14	1	7	/	0	/	/	1
CCC(C)N1CCC2(CC1)N=c1c(c3c4c5c(C)c(O)c3c(O)c1=NC(=O)C(C)=CC=C[C@H](C)[C@H](O)[C@@H](C)[C@@H](O)[C@@H](C)[C@H](OC(C)=O)[C@H](C)[C@@H](OC)C=CO[C@@](C)(O5)C4=O)N2 (stereo partly specified)	3	-1	-2	/	3	/	/	5
O=C(NN1CCOCC1)c1cc(-c2ccncc2)nc2ccccc12	-13	1	2	i	/	-1	3	0
Cn1c(CC(=O)NNC(=O)c2ccccc2F)nc2ccccc21	/	1	5	/	-15	/	/	-2
O=C(CN1CC(=O)Nc2ccccc21)Nc1ccc(F)c(F)c1	-2	-3	4	i	/	-1	-14	-12
CC(=O)c1cc(-c2ccccc2)n(CC(=O)N2CCCCC2)c1C	-20	-1	-4	i	0	-6	13	-30
COCC(=O)N(C)[C@H]1C[C@H]2c3[nH]c4ccccc4c3CCN2C(=O)[C@H]1[C@H](C)O	-294	-1	1	/	10	/	/	/
Cc1cccc(C(=O)Nc2ccc(C(=O)N/N=C/c3ccc4c(c3)OCO4)cc2)c1	8	-2	-4	i	-12	-4	-5	46
CC(=O)N1CCCc2cc(S(=O)(=O)N(CC(C)C)CC(C)C)ccc21	-4	-8	-10	i	-7	-9	2	9
O=c1c(Br)c(Br)cnn1-c1ccccc1	-229	-29	-28	/	/	-1	-6	/
O=C(c1ccc(OC2CCN(Cc3ccccn3)CC2)cc1)N1CCCCO1	-15	2	2	i	3	0	0	-4
Cc1ccc(NC(=O)c2ccc3c(c2)C(=O)N(CC2CCCO2)C3=O)cc1C (stereo unspecified)	20	2	2	i	/	0	-6	-13
N#Cc1c(NC(=O)CCCC(=O)O)sc2c1CCCCC2	22	5	3	i	1	0	3	2
CCCCCCSc1cccc(-c2nc3ccc(C)cn3c2NC2CCCCC2)c1	21	0	1	i	-19	/	/	60
CCOc1ccc(NC(=O)c2ccc(F)cc2F)cc1	-61	-2	4	i	-19	/	/	-4
CCCNC(=O)C1(C)CCN(C(=O)c2cc(C(C)(C)C)nn2C)C1 (stereo unspecified)	-2	5	3	/	2	/	/	/
COc1ccc(C2=C(Nc3ccccc3)c3ccccc3C2=O)cc1	/	7	-5	i	/	-9	-6	-1
CCOc1ccccc1N(CC(=O)NCCOC)C(=O)CCC(=O)Nc1ccccn1	5	-4	1	i	-8	-7	-2	-7
Cc1nc(Cl)c(C#N)c2c1CCCC2	17	-7	0	i	-3	-1	-3	-10
Cc1cc(NC(=O)C(=O)NCCN2CCN(C(=O)c3cccs3)CC2)ccc1Br	17	0	2	i	-19	3	-20	-14
NC(c1ccccc1)c1csc(Nc2ccccn2)n1 (stereo unspecified)	-27	-2	-4	/	-8	/	/	/
COc1ccc(C2(C)NC(=O)N(CC(=O)Nc3ccc(C)cc3Br)C2=O)cc1OC (stereo unspecified)	7	3	1	i	1	-14	3	-13
CCCc1nc2nc(C)c(NS(=O)(=O)c3ccc([N+](=O)[O-])cc3)c(=O)n2[nH]1	5	6	5	/	-5	6	12	20
CN(C)S(=O)(=O)c1cccc(C(=O)Nc2cc3c(cc2C(=O)O)OCCCO3)c1	8	0	3	i	-8	-1	3	-12
O=C(CCN1CCN(c2ccccc2)CC1)Nc1ccccc1	-24	4	1	i	-22	-1	0	0
Cn1c(=O)[nH]c(=O)c2c1nc(CN1CCN(c3ccccc3F)CC1)n2CC(N)=O	16	-3	4	i	-12	-7	-4	7
COCCN(C(=O)CSc1nnc(-c2ccc(F)cc2)n1N)c1c(N)n(CC(C)C)c(=O)[nH]c1=O	-39	0	3	/	-10	/	/	/
CCNC(=S)SCCOc1ccccc1C	-28	-1	1	i	-15	2	-3	-1
O=C(O)[C@H]1CCCN1C(=O)c1ccccc1N1C(=O)[C@@H]2Cc3c([nH]c4ccccc34)C(c3cccc(Cl)c3)N2C1=O (stereo partly specified)	/	4	5	i	11	0	10	-4

# 12 of the compounds above, with values under each structure:
# Each structure is followed by: Env fusion inh	MT1-MMP act inh	MT1-MMP act inh RFP	Rce1 inhib	UUG fidelity	eIF4H inh	PABP polyA inh	CSC inhib
O=C(NC1CCCC1)c1cc(-c2ccc(Cl)cc2)on1
    -35	1	-2	i	-6	-1	-1	11
Cc1cc(C)c(C#N)c(SCC(=O)Nc2nonc2N)n1
    -29	3	0	/	-1	-10	7	62
O=C(NCc1ccccc1)c1cc(C2COCCN2C(=O)CCc2ccccc2)on1 (stereo unspecified)
    10	4	6	/	-2	/	/	/
c1ccc(-n2cnc3cc(NCc4ccncc4)ccc32)cc1
    -53	11	0	i	-23	3	-3	2
Cc1ccc(C(=O)Nc2cccnc2Cl)cc1Cl
    -22	-2	4	i	-14	4	3	-5
Cc1cc(C)cc(OCC(O)CN2C(=O)NC(C)(C)C2=O)c1 (stereo unspecified)
    -14	1	7	i	-8	-1	4	-7
O=C1CC(N2CCN(C/C=C/c3ccccc3)CC2)C(=O)N1CCc1ccccc1 (stereo unspecified)
    /	1	-9	i	-23	0	4	1
CC(=O)N1CCN(c2ccc([N+](=O)[O-])cc2)CC1
    4	4	1	i	/	-9	-8	-11
CCCNC(=O)CSc1nnc(-c2ccccc2Br)n1-c1cccc(C(F)(F)F)c1
    -5	-4	1	i	/	-20	4	-1
COC(=O)C1(C)NC(c2ccc(OC)cc2)C2C(=O)N(c3ccccc3)C(=O)C21 (stereo unspecified)
    -11	0	1	i	-11	6	-4	0
Cc1ccc2c(CN3CCN(S(=O)(=O)c4ccc(Cl)cc4)CC3)cc(=O)oc2c1C
    33	-2	-16	/	-7	/	/	/
c1ccc(Nc2nc3ccccc3n3cnnc23)cc1
    -15	5	4	i	-15	-1	2	5

# Further structures:
smiles	Env fusion inh	MT1-MMP act inh	MT1-MMP act inh RFP	Rce1 inhib	UUG fidelity	eIF4H inh	PABP polyA inh	CSC inhib
CC(C)OC(=O)c1ccc(N2CCN(c3ccc(F)cc3)CC2)nc1	1	-4	-24	i	-3	-6	6	2
COCCCNCCOCCOc1ccccc1-c1ccccc1	-109	3	7	i	-3	5	-9	6
CCOC(=O)N1CCN(C(=S)Nc2ccc(C)cc2)CC1	17	-1	0	i	/	-4	18	-9
CN(C)c1nc(N)nc(-c2nc3ccccc3s2)n1	/	7	2	i	/	-2	-4	1
CC(=O)Nc1cccc(NC(=O)CSc2nnnn2C(C)C)c1	-53	4	4	i	1	2	-8	0
CSCC[C@H](NC(=O)N1CCn2c1nc1ccccc12)C(=O)N1CCCCC1	-9	7	2	i	-19	-10	4	-6
Cn1cc(S(=O)(=O)N2CCCC2)cc1C(=O)NCc1ccc(F)cc1	-11	4	4	i	-10	-4	1	5
COc1ccc(NS(=O)(=O)c2cc(NC(=O)CCc3ccccc3)ccc2N2CCOCC2)cc1	42	-2	-2	/	-16	/	/	/
Cc1cc(CNC(=O)CC2C(=O)NCCN2CC(c2ccccc2)c2ccccc2)on1 (stereo unspecified)	1	3	11	i	/	19	20	7
CCc1ccc(N2CC(C(=O)Nc3nnc(CC)s3)CC2=O)cc1 (stereo unspecified)	/	3	4	i	/	-2	-6	/
CCN1C(=O)/C(=C2\C=Cc3cc(C)ccc3N2CC)OC1=S	/	-2	0	i	-18	46	-3	-2
O=[N+]([O-])c1ccccc1OCC(O)CN1CCN(CC(O)COc2ccccc2[N+](=O)[O-])CC1 (stereo unspecified)	-35	3	4	i	1	1	7	3
O=C(NCc1csc(-c2cccs2)n1)Nc1ccc(F)cc1F	-15	1	-2	i	/	-7	1	-7
Cc1cc(Nc2c(C)cccc2C)n2nc(C)nc2n1	0	3	2	i	-6	-16	9	10
CCCCCCN(C(=O)CCCCCN1C(=O)NC(c2ccc(C(C)(C)C)cc2)C(C(=O)OCc2ccccc2)=C1C)C(C(=O)NCCCC)c1ccc(OCC(=O)OC)c(C(=O)OC)c1 (stereo unspecified)	/	/	/	i	/	-5	-8	/
CCOc1cccc(C(=O)NC(=S)Nc2cccc(C)c2)c1	-15	-1	-1	i	/	2	-5	12
